VDR inhibitor: inhibitors of human vitamin D receptor; AID 504847; 400,000 tested, 0.93% active; VDR-SRC2-3 peptide fluorescence polarization, 2 h; P11473; Potency, µM, for the others: max response, negative = inhibition, hits mostly inhibitors; active = well fitted inhibition curve with a large enough effect; inconclusive = small, poorly fitted or top-dose-only effect, or another doubt; inactive = no such curve, though single readings can be large or run the other way; note: series mostly up to about 120 µM
Target sequence (P11473 whole entry, looked up): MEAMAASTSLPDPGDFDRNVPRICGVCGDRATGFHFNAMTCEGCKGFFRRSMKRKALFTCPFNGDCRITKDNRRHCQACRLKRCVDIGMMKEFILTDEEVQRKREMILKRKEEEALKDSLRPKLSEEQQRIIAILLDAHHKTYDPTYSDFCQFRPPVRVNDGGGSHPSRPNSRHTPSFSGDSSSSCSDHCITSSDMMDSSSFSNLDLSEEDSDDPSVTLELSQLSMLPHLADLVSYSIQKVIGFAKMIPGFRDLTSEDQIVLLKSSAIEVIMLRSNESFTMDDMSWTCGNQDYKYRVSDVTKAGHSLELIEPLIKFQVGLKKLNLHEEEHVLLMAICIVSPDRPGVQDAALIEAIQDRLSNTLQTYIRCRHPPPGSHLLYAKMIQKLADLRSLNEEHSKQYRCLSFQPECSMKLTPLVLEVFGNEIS
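Signal is fluorescence polarization, reporting how far test compounds block the interaction of VDR with the SRC2-3 coregulator peptide after a 2 h room-temperature incubation.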
* = called active by the depositor; ? = inconclusive; & = joins results of further samples; [ ] = dose if it differs, or a comment. % is set by controls: 0 for no effect and ±100 for the full control effect; potency is the fitted concentration of half-maximal effect.

SMILES	VDR inhibitor
COc1cccc(N2CCN(C(=O)c3ccc(CS(=O)c4cccc(Cl)c4)o3)CC2)c1 (stereo not given)	15%
CC(CNCc1ccc2c(c1)OCO2)NCc1ccc2c(c1)OCO2 (stereo not given)	8%
Cc1ccc(-c2cnc(C3CC3)o2)cc1S(=O)(=O)Nc1ccccc1	3%
COc1cc(C(=O)OCC(=O)NC23CC4CC(CC(C4)C2)C3)cc(OC)c1OC	-8%
Cc1ccc(OCC(=O)Nc2ccc3nc(SCC(=O)N4CCCC4)sc3c2)cc1	5%
COc1ccc(OC)c(CNc2ccc3c(c2)CCC3)c1	-21%
CCCCSc1nc(C)cc(SCC(=O)N/N=C/c2ccccc2)n1	1%
CCOc1ccc(S(=O)(=O)NCC2(N3CCCCC3)CCCCC2)cc1	7%
CSc1nnc(-c2cc(-c3ccc(C)cc3)nc3ccccc23)o1	-12%
CCOC(=O)c1c(-c2ccccc2)csc1NC(=O)c1nc(S(=O)(=O)CC)ncc1Cl	18µM*
Cc1ccc(C2=NN(C(=O)CSc3nc(N)cc(N)n3)C(c3ccco3)C2)cc1 (stereo not given)	0%
Cc1c(Cl)c([N+](=O)[O-])nn1CCCC(=O)NC1CCCCC1	-15%
CCN(CC)C(=O)CSc1nnc(COc2ccccc2)n1CC	1%
Cn1c(=O)[nH]c2c(Cl)nccc21	36%[activator]
Cn1c(-c2ccc([N+](=O)[O-])cc2)nc2ccccc21	-2%
CC(C)CCn1c(Br)nc2c1c(=O)n(CC(N)=O)c(=O)n2C	2%
CC(=O)Oc1ccc(NC(=O)CSc2ccccc2)cc1	3%
O=S1(=O)C=C(Sc2nc3ccccc3s2)c2ccccc21	13µM*
Cc1cccc(Oc2sc(C(=O)c3ccccc3)c(N)c2C#N)c1	-3%
Cc1nc2n[nH]c(N)c2c2c1CCCC2	-3%
COC(=O)C1CCN(C(c2ccccc2)c2sc3nc(-c4ccco4)nn3c2O)CC1 (stereo not given)	12%
O=CN1Cc2ccccc2-c2ccccc2C1	-11%
CCC(=O)c1ccc(OCC(O)CN2CCN(S(=O)(=O)c3ccc(NC(C)=O)cc3)CC2)cc1 (stereo not given)	4%
Cn1cnnc1SCNC(=O)C(F)(F)F	5%
C=CCN1C(=O)CSc2ccc(C(=O)N3CCC(C)CC3)cc21	2%
SMILES	VDR inhibitor
O=S(=O)(Nc1cccc2cccnc12)c1ccccc1Br	1%
CN1Cc2ccccc2N(CC(=O)NCc2ccccc2)C1=O	4%
Cc1ccc2nc(Cn3cc(C(F)(F)F)ccc3=O)cc(=O)n2c1	1%
Cc1ccc(S(=O)(=O)N2[C@@H](c3ccc(F)cc3)C(C(=O)O)=CC[C@H]2c2cccc(C)c2)cc1	-18%
COc1ccc(N2CCN(C(=O)c3ccc(CSc4ccccc4)cc3)CC2)cc1	-3%
COc1cccc(Cn2c(=O)c(-c3cccc(Cl)c3)nc3cncnc32)c1	-6%
C=CCn1c(C(C)NC(=O)c2cccs2)n[nH]c1=S (stereo not given)	2%
CNC(=S)Nc1ccc(Nc2ccccc2)cc1	-20%
NC(=O)c1ccc(NS(=O)(=O)c2ccc3ccccc3c2)cc1	-17%
CC1(C)CC(=O)C(=Cc2cn(-c3ccccc3)nc2-c2ccc(Cl)cc2)C(=O)C1	?
CCOc1ccccc1N(CC(=O)NCc1ccco1)C(=O)CCC(=O)Nc1nccs1	6%
CC(=O)c1ccc(OCCCC(=O)n2nnc3ccccc32)cc1	?
COc1ccc(Cl)cc1NC(=O)CSc1nc(=O)[nH]c2c1CCC2	-20%
CCn1nc(C(=O)N2CCN(Cc3nc4ccccc4s3)CC2)c2ccccc2c1=O	2%
Cc1ccc(NC(=O)c2c(C)oc3ccc(O)c(CN4CCCCC4)c23)cc1	1%
CCOC(=O)c1[nH]c2ccc(OCC)cc2c1CCCN1C(=O)c2ccccc2C1=O	-14%
COc1cc2c(-c3ccccc3Cl)nc3c(c(C)nn3-c3ccccc3)c2cc1OC	-15%
CN1CCN(C(=O)CNC(=O)c2cccs2)CC1	-4%
NC(=O)C1(N2CCCCC2)CCN(Cc2nc3ccccc3c(=O)[nH]2)CC1	-16%
CC(CCc1ccccc1)NC(=O)CSc1n[nH]c(-c2ccccc2)n1 (stereo not given)	-2%
CC1Cc2ccccc2N1S(=O)(=O)c1cccc2nsnc12 (stereo not given)	6%
COc1cc(-c2nnc(-c3cc(OC)c(OC)c(OC)c3)o2)cc(OC)c1OC	5%
CCCCC[C@@H](/C=C/C1C(=O)C=C[C@H]1C/C=C\CCCC(=O)OC)OC(C)=O (stereo not given in full)	10µM*
COc1ccccc1NC(=O)c1cc(N)cc(C(=O)Nc2ccccc2OC)c1	-10%
COc1ccc(C(C(=O)NC2CCCCC2)N(C(=O)Cc2c[nH]c3ccccc23)c2ccccc2C)cc1OC (stereo not given)	1%
SMILES	VDR inhibitor
Cc1ccnc(NS(=O)(=O)c2ccc(NC(=O)C(C)(C)Oc3ccc(Cl)cc3)cc2)n1	-3%
COc1ccc(S(=O)(=O)N2CCCCC2)cc1NC(=O)c1c(F)cccc1Cl	6%
CC(C)c1ccc(NC2CCCN(C(=O)c3ccco3)C2)cc1 (stereo not given)	6%
Cc1[nH]c2c(Br)cccc2c1[C@H]1[C@@H](CC#N)C1(C)C	-2%
CC1CCCCC1NC(=O)CNC(=O)c1cccs1 (stereo not given)	7%
COc1ccc(-c2cc(C(=O)Nc3c(C(=O)c4ccc(Cl)cc4)oc4ccccc34)no2)cc1	6%
Cc1ccccc1NS(=O)(=O)c1ccc(C(=O)NCC(c2ccco2)N2CCCCC2)cc1 (stereo not given)	-18%
COc1cc(/C=N/n2c(-c3n[nH]c4c3CCC4)n[nH]c2=S)cc(OC)c1O	-3%
CCOc1ccc(N(CC)S(=O)(=O)N2CCCC(C(=O)Nc3cc(Cl)ccc3C)C2)cc1 (stereo not given)	8%
COc1ccccc1CNc1ccc(-c2nc(-c3ccncc3)no2)cc1[N+](=O)[O-]	11%
O=C(/C=C/NNC(=O)c1ccc(Cl)cc1)c1ccccc1	?
COc1ccc(S(=O)(=O)Nc2nccs2)cc1OC	-4%
COc1ccc(N(CC(=O)Nc2cccc(Cl)c2C)S(=O)(=O)c2c(C)nn(C)c2C)cc1	-13%
Cc1cc(NS(=O)(=O)c2ccc(NC(=O)/C=C/c3ccc(Br)cc3)cc2)no1	-11%
CCN(CC)S(=O)(=O)c1ccc(O)c(NC(=O)c2cc(-c3cc(OC)c(OC)c(OC)c3)nc3ccccc23)c1	-23%
O=C(Nc1ccc(Cc2ccncc2)cc1)c1cc(F)c(F)cc1Cl	-11%
O=C(CSc1nnc(-c2ccccc2)o1)N1CCN(c2ccccc2)CC1	3%
Cc1ccc(S(=O)(=O)NCCSCc2ccccc2)cc1	-18%
O=C(Nc1ccc(Br)cc1)N1CCCCC1	-9%
CCOC(=O)N1C2C=C(C)[C@@H]2[C@@H]2CC(=O)N21 (stereo not given in full)	?
CCOC(=O)CN1C(=O)NC2NC(=O)NC21 (stereo not given)	-1%
COC(=O)C[C@H]1c2cc(C(F)(F)F)ccc2S(=O)(=O)N1C(C)(C)C	?
O=c1cc(C(F)(F)F)nc(SCc2cccnc2)[nH]1	-1%
O=C(COC(=O)c1cccc(S(=O)(=O)Nc2ccc(F)cc2)c1)NCCN1C(=O)CSC1=O	-4%
Cc1ccccc1NC(=S)N1CCCC(c2nc3ccccc3[nH]2)C1 (stereo not given)	-8%
SMILES	VDR inhibitor
CC(=O)Nc1cccc(OC(=O)COc2ccc(Br)cc2)c1	-1%
O=C(O)/C=C/C(=O)NNc1ccc([N+](=O)[O-])cc1	?
COCCn1c(N)c(N(Cc2ccccc2)C(=O)COc2ccccc2F)c(=O)[nH]c1=O	6%
CC1CCN(C(=O)COc2coc(CN3CCc4ccccc43)cc2=O)CC1	-22%
COc1ccc(N2CCN(C(=O)CNC(=O)Cc3ccccc3)CC2)cc1	10%
Cc1onc(C(=O)N2CCOCC2)c1[N+](=O)[O-]	-21%
CN(C)c1ccc(C(=O)NCCCSc2ccccc2)cc1	-4%
O=C(Cn1cnc2c(nnn2Cc2ccc(F)cc2)c1=O)NCc1ccccc1	-8%
COc1ccc(-n2c(=O)c(NC(=O)c3ccccc3)c3n(c2=S)CCCCC3)cc1	-6%
CCCC(CCC(=O)Nc1cccc([N+](=O)[O-])c1)C(=O)O (stereo not given)	2%
CSCC[C@H](NS(=O)(=O)c1ccc(C(C)=O)cc1)c1nnc2ccccn12	15%
NS(=O)(=O)c1ccc(NC(=O)CSc2ncnc3ccccc23)cc1	-7%
CCC(=O)N1c2nc(-c3ccco3)nn2C2(CCCCC2)[C@@H]2CCCC[C@@H]21	11%
O=C(Nc1cccc(O)c1)c1cc(-c2ccccc2F)no1	10%
O=c1c(-c2ccc(Cl)cc2)coc2c(CN3CCOCC3)c(O)ccc12	-3%
COc1cc2ccccc2cc1C(=O)OCC(=O)NC1CCS(=O)(=O)C1 (stereo not given)	8%
Cc1cccc(C(=O)NCC(=O)OCc2cc(=O)n3nc(C4CCCCC4)sc3n2)c1	-3%
Cc1ccc(N/C=C/C(=O)c2ccccc2)cc1Br	-17%
COc1ccc(OC)c(-c2csc(NC(=O)c3ccc(F)cc3)n2)c1	-11%
COc1ccc(C(=O)NCC(c2cccnc2)N2CCN(c3ccc(F)cc3)CC2)cc1 (stereo not given)	1%
CCNC(=O)C1(c2ccccc2)CCCC1	-10%
CC(=O)c1sc(=S)n(Cc2ccccc2)c1C	20%
NS(=O)(=O)c1ccc(-c2ccc(/C=C3\C(=O)Nc4cc(Cl)ccc43)o2)cc1	18%
Clc1ccc(-c2cc3ccccc3[nH]2)cc1	1%
O=C(c1ccc(OCCCc2cnc[nH]2)cc1)C1CC1	2%&6%&4%

Random excerpt: 7 records from the list
SMILES	VDR inhibitor
Cc1cccc(C(=O)NCC(=O)OCc2cc(=O)n3nc(C4CCCCC4)sc3n2)c1	-3%
COCCn1c(N)c(N(Cc2ccccc2)C(=O)COc2ccccc2F)c(=O)[nH]c1=O	6%
CC1CCN(C(=O)COc2coc(CN3CCc4ccccc43)cc2=O)CC1	-22%
CC(=O)c1sc(=S)n(Cc2ccccc2)c1C	20%
O=C(O)/C=C/C(=O)NNc1ccc([N+](=O)[O-])cc1	?
Cc1onc(C(=O)N2CCOCC2)c1[N+](=O)[O-]	-21%
COc1ccc(-n2c(=O)c(NC(=O)c3ccccc3)c3n(c2=S)CCCCC3)cc1	-6%

Shown as labelled records: part of the list above
SMILES: CN(C)c1ccc(C(=O)NCCCSc2ccccc2)cc1
  VDR inhibitor: -4%

SMILES: O=C(Cn1cnc2c(nnn2Cc2ccc(F)cc2)c1=O)NCc1ccccc1
  VDR inhibitor: -8%

SMILES: COc1ccc(-n2c(=O)c(NC(=O)c3ccccc3)c3n(c2=S)CCCCC3)cc1
  VDR inhibitor: -6%

SMILES: CCCC(CCC(=O)Nc1cccc([N+](=O)[O-])c1)C(=O)O (stereo not given)
  VDR inhibitor: 2%

Next results follow:
SMILES	VDR inhibitor
COc1ccc(Cc2nnc(NC(=O)C3CC(=O)N(c4ccc(OC)cc4)C3)s2)cc1 (stereo not given)	-19%
Cc1ccc(/C=N/N2CCN(Cc3cccc4ccccc34)CC2)o1	-24%
CCN(CC)S(=O)(=O)c1ccc(N2CCOCC2)c(NC(=O)C(=O)c2c(-c3ccccc3)cc3ccccn23)c1	-20%
O=C1NCCCC1C(=O)NCCN1C(=O)CCC1=O (stereo not given)	2%
CCOc1ccccc1C(=O)N[C@H](C(=O)OCc1cc([N+](=O)[O-])cc2c1OCOC2)C(C)C	-14%
COc1ccc(-c2[nH]nc3nc(-c4cc(Br)ccc4OC)cc(C(=O)O)c23)cc1	10%
O=[N+]([O-])c1ccc(NCCCO)c(C(F)(F)F)c1	-10%
Cc1ccc(OCCCC(=O)Nc2ccc(S(N)(=O)=O)cc2)cc1	-21%
CN(CC(=O)Nc1ccccc1Br)C(=O)c1ccc2c(=O)n3c(nc2c1)CCC3	-5%
Cc1cc(C)cc(NC(=O)CSCc2nc3c(nnn3Cc3ccc(F)cc3)c(=O)[nH]2)c1	3%
CN1C(c2ccccc2)=NO[C@]1(C)c1ccccc1	16%
CNC(=S)NNC(=O)c1ccc2c(c1)OCO2	-7%
CCOC(=O)c1nn(-c2ccc(C)cc2)cc1C(=O)c1ccccc1	5%
CCOC(=O)c1c(S(=O)(=O)N2CCC(C(=O)NCc3ccc(F)cc3)CC2)c(C)n(C)c1C	11%
O=C(Nc1cc(C(F)(F)F)ccc1Cl)c1cc(-c2cccs2)nc2ccccc12	-21%
COC(=O)CCCC[C@@H]1SC[C@@H]2NC(=O)N[C@@H]21	2%
OC[C@H]1O[C@H](OC[C@H]2OC(O)[C@H](O)[C@@H](O)[C@@H]2O)[C@H](O)[C@@H](O)[C@@H]1O (stereo not given in full)	-22%
COc1ccc(C2CC(=O)Oc3ccc(O)cc32)cc1 (stereo not given)	-4%
Cn1cc(S(=O)(=O)N2CCN(Cc3ccccc3)CC2)c(=O)n(C)c1=O	10%
COc1cc2ccccc2cc1C(=O)Nc1ccc2oc(-c3cccc(C)c3)nc2c1	-15%
COc1cc(/C=N/NC(=O)COc2cc(C)cc(C)c2)ccc1OS(=O)(=O)c1ccc(C)cc1	-15%
Cc1csc(=Nc2cccnc2)n1CC1CCCCC1	-1%
CN1CCC(CC(C(=O)N2CCCC2)(c2ccccc2)c2ccccc2)C1 (stereo not given)	3%
O=C(OCC(=O)N1CCN(c2ccccc2)CC1)c1cccc(Cl)c1	0%
CSc1ccccc1N1CCN(C(=O)Nc2ccc3c(c2)NC(=O)CO3)CC1	9%
O=C1CSC(c2ccc(F)c(F)c2)N1c1ccccc1F (stereo not given)	-21%

This is a subset; rates above refer to the full screens.
